# From PubChem BioAssay
# GLA inh pH 4.5 – inhibitors of human alpha-galactosidase A at pH 4.5 | P06280 | purified enzyme, 4-MU-alpha-Gal fluorescence, pH 4.5 | activity change, negative = inhibition, % at 105 µM | 230,000 tested, under 10 active | AID 1467; inconclusive = small, poorly fitted or top-dose-only inhibition, or a rising curve; inactive = flat fitted curve, though single readings scatter; no compound was filed as active;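 also: 0% = full activity with enzyme and -100% = basal without enzyme; dose as in the result columns while the protocol names 77 µM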
# Rango-impB inh – prevents formation of the Rango-importin beta complex | Rango CFP/YFP FRET sensor + importin beta, 45 min | Q14974 | 340,000 compounds, 0.031% hits | Potency, µM (series often up to 92.2 µM), without a hit: at the highest dose inhibition of complex formation | AID 540263; active = rising FRET ratio curve, often small or poorly fitted; inconclusive = mostly compound fluorescence or quenching in the first reads; inactive = flat curves in all reads;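 also: potency is read from the fitted curve at half-maximal effect; 0% = DMSO wells and 100% = buffer wells lacking importin beta; nearly all actives have a fitted effect of over 15% in size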
# Target sequence (Q14974 whole entry, looked up): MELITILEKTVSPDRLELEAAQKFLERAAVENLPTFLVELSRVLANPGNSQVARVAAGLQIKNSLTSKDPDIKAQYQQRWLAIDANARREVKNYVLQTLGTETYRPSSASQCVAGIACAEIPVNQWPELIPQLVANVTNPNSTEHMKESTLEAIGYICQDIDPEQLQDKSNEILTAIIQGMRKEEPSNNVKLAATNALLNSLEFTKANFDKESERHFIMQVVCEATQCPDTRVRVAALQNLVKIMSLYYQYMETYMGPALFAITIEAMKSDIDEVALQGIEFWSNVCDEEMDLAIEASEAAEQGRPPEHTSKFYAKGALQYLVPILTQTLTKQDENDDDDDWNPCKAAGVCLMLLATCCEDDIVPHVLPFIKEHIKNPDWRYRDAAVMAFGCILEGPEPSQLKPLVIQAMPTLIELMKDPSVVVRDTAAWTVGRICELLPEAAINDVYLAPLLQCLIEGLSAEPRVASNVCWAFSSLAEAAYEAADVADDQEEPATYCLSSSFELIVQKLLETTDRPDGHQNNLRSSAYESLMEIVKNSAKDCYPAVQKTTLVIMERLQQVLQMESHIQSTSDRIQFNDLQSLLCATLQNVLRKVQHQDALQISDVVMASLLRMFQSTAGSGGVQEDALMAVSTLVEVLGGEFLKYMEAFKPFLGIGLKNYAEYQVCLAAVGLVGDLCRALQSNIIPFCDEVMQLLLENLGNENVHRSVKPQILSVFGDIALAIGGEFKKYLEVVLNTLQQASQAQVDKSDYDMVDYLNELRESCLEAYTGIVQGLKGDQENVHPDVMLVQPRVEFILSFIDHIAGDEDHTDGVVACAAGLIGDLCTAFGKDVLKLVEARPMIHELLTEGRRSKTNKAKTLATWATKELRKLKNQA
#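 FRET biosensor (snurportin 1 IBB flanked by EYFP and cerulean), 50 nM, with compound 5 min, then 0.125 microM importin beta in PBS, 1 mM DTT, 0.02% Tween-20, 0.1% BSA. CFP/YFP ratio read after 45 min at room temperature; pre-read flags interference.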
# Rango release inh – prevents RanGTP from dissociating the Rango-importin beta complex | O95149+P62826 | Biochemical FRET Rango-importin beta, RanGTP-induced dissociation | Potency, µM (highest dose often 46.1 µM), for the others: at the highest dose activity change, negative = inhibition | 340,000 compounds, 0.071% hits | AID 540253; active means falling FRET ratio curve, often poorly fitted, with flat reads before Ran was added; inconclusive means other falling curves, or compound fluorescence or quenching; inactive means flat or rising ratio curve;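 also: potency is read from the fitted curve at half-maximal effect; % of control where 0% means no effect; nearly all actives have a fitted effect of over 45% in size; -100% = wells without RanGTP and RCC1; the record marks most hits as doubtful in a second field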
#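 Two FRET readings bracket the reaction: one 5 min after compound meets Rango–importin beta, another 45 min after RanGTP-RCC1 (0.6 uM Ran, 0.2 uM RCC1, 2 mM GTP) is added. Only the second defines inhibition.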
# miR-21 FLuc – raises the signal of a miR-21 reporter; AID 2288; HeLa miR-21 FLuc reporter, luciferase, 48 h; Potency, µM (highest dose often 38.3 µM), inactives show at the highest dose reporter change, positive = more light; 340,000 tested, under 10 active; active = well fitted rising curve with a large enough effect; inconclusive = small, poorly fitted or top-dose-only effect; inactive = no such curve, though single readings can be large or run the other way;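 also: % of control where 0% means no effect; miR-21 action dims this reporter so a rising signal means less miR-21 action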
#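 HeLa miR-21-FLuc reporter line, endogenous miR-21; 2000 cells/well in DMEM/10% FBS; compound titration up to ~40uM final, 48 h, 37 degree Celsius; luciferase detection reagent, 15 min lysis, CCD luminescence.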
# An asterisk follows results filed as active; ? = inconclusive; . = no result given; & = joins results of further samples. A portion of the library; count on the stated rates, not on these rows.
SMILES,GLA inh pH 4.5,Rango-impB inh,Rango release inh,miR-21 FLuc
COc1ccc(C2CC(C)(c3ccc(OC)cc3OC)Nc3ccccc3N2)c(OC)c1 (centres undefined),-1,-0.7%,17%,-38%
CCOc1ccc(C(=O)COC(=O)CNC(=O)C2CCCCC2)cc1,.,?,-13%,.
COc1cc(CNc2ccccc2SC)cc(OC)c1OC,-3,3.0%,1%,15%
COc1ccccc1[C@@H]1C(c2cccc(C)c2)=NN(c2ccccc2)[C@H]1C(=O)N1CCOC1=O,-3&9,?,?,-14%
O/N=C/c1ccccc1OCc1ccccc1F,0,2.4%,-10%,-37%
CN(Cc1cc(=O)[nH]c2ccccc12)C(=O)c1ccccc1,0,0.4%,-12%,-16%
COc1ccc(NC(=O)c2ccc(C)cc2)c[n+]1[O-],.,0.4%,-8%,-32%
O=C(CSC1=NCCS1)Nc1ccc(S(=O)(=O)NC2CCCCC2)cc1,-7,2.2%,0%,-3%
C/C(=N/NC(=O)CNC(=O)COc1cccc(C)c1)c1ccc(Cl)cc1,.,-2.7%,20%,1%
CCOC(=O)c1cccc(NS(=O)(=O)c2ccc(NC(C)=O)cc2)c1,8,-0.5%,2%,28%
Cc1ccc(C(=O)N2CCN(S(=O)(=O)N3CCCCC3)CC2)cc1,.,2.8%,-5%,0%
COc1ccc(NC(=O)/C(C#N)=C/c2cc(C)n(-c3ccc(N4CCOCC4)c([N+](=O)[O-])c3)c2C)cc1,-4,1.6%,-17%,2%
Cc1cc(=O)oc2cc(NC(=O)CCOc3ccccc3)ccc12,.,4.1%,18%,-20%
COc1ccc(Oc2c(-c3ccc(O)cc3O)n[nH]c2C)cc1,1,0.0%,-17%,-4%
O=C(NCC1COc2ccccc2O1)c1ccc(Cl)cc1 (centres undefined),-7,1.9%,26%,-38%
Cc1cccc(OC(=O)c2cccnc2)c1,.,-2.7%,1%,-1%
CN[C@H](CC(=O)O)C(=O)O,-3&-9,-0.1%,5%,.
CCN(C1CCCCC1)S(=O)(=O)c1ccc(-n2cnnn2)c(C)c1,.,0.1%,1%,1%
Cc1nccc(-c2cccc(N/N=C(\C#N)C(=O)c3ccccc3)c2)n1,-15,?,6%,-3%
CCn1cc(C(=O)N[C@H](C)c2ccccc2)c(=O)c2cc(F)c(N3CCN(C)CC3)cc21,4,4.2%,2%,8%
CSc1nncc(/C(C)=N\Nc2ccccc2C)n1,8,-4.8%,-12%,-15%
Cc1cc(C(=O)N2CCOCC2)c(C)o1,8,-1.9%,-2%,0%
CN(CCC#N)C(=O)COC(=O)c1ccc(Cl)c(S(N)(=O)=O)c1,-1,-3.9%,0%,-14%
CCOC(=O)c1cc(-c2cccs2)nc2onc(C)c12,22,-3.2%,-8%,-6%
CCC(=O)Nc1nc(C)c(-c2csc(Nc3cccc(O)c3)n2)s1,.,0.0%,-1%,11%
CN1CCN(c2ccc(-c3cccc(NC(=O)COc4ccc(Cl)cc4)c3)nn2)CC1,.,0.1%,21%,.
O=C(O)CCCC(=O)Nc1ccc(Cl)c(Cl)c1,-5,-0.7%,-17%,-4%
Cc1ccc(S(=O)(=O)CCSc2ccc(C(F)(F)F)cn2)cc1,0,-1.9%,-6%,3%
COCCN(C(=O)C1CCCC1)c1c(N)n(Cc2ccccc2)c(=O)[nH]c1=O,-8,-5.7%,-9%,0%
COc1ccc(C(=O)N2CCc3cc(OC)c(OC)cc3C2c2ccc(OC)c(OC)c2)cc1 (centres undefined),.,0.0%,1%,7%
CCOC(=O)c1nc(N)c(=O)n(-c2ccc(C)cc2)n1,-10,1.0%,1%,2%
Cc1cccc(C)c1OCCCn1ccnc1,.,-1.5%,-5%,-1%
O=C(NCc1cccnc1)C1CCCN(S(=O)(=O)c2ccccc2)C1 (centres undefined),7,-0.9%,-4%,-5%
COc1ccc(OC)c(C2Nc3c(Cl)ccc(C(=O)O)c3C3C=CCC32)c1 (centres undefined),-10,-1.9%,-10%,-1%
Cc1cc(C)cc(NC(=O)COC(=O)c2n[nH]c3ccccc23)c1,2,-1.7%,20%,-54%
O=C1S/C(=C\c2ccc(N3CCOCC3)o2)C(=O)N1c1ccccc1,-6,?,?,-5%
O=[N+]([O-])c1ccc(NCc2ccncc2)cc1,.,-0.6%,-6%,0%
CCCc1nc2ccccc2c(C(=O)OC(C)C(=O)NCc2ccc3c(c2)OCO3)c1CC (centres undefined),-8,-1.1%,0%,22%
COc1ccc(NC(=O)c2ccccc2C(=O)N2CCCCC2)cc1,2,1.7%,21%,-22%
COc1ccc(C(CNC(=O)CNC(=O)c2cccc(C)c2)N2CCOCC2)cc1 (centres undefined),.,-3.2%,-12%,.
COc1cccc(C2/C(=C(\O)c3ccc4c(c3)OCCO4)C(=O)C(=O)N2CCCn2ccnc2)c1 (centres undefined),.,0.0%,-25%,-6%
COc1cc(-c2noc(C)c2/C=C/c2ccc(C(=O)O)cc2)cc(OC)c1OC,.,-0.6%,-16%,13%
COC(=O)CCN(Cc1cc(OC)ccc1OC)S(=O)(=O)c1ccccc1Br,.,-2.6%,7%,.
Cc1c(C(Nc2ccccn2)c2ccc(Cl)cc2)c(=O)n(-c2ccccc2)n1C (centres undefined),7,-3.1%,-3%,-6%
O=C(NC1CC1)C1CCN(S(=O)(=O)c2cc([N+](=O)[O-])ccc2Cl)CC1,.,-2.9%,16%,.
O=C1C2C(c3ccccc3)CC=CC2[C@H](c2ccc(C(F)(F)F)cc2)N1Cc1ccccc1 (some centres undefined),9,0.0%,0%,29%
CCOC(=O)c1c(NC(=O)CCC(=O)N(CC)CC)sc2c1CC(C)(C)OC2,6,0.1%,2%,5%
CCS(=O)(=O)N1CCC(C(=O)Oc2ccc(Br)cc2)CC1,.,-0.5%,-15%,0%
C/C(CC(=O)NC(C)C)=N\NC(=O)C(c1ccccc1)c1ccccc1,-1,-2.0%,0%,-5%
O=C(N[C@@H]1C[C@H]2CC[C@@H]1C2)c1ccco1,.,0.6%,23%,0%
CC1CCCC(C)N1C(=O)COc1ccc(C(=O)Nc2ccccc2N2CCOCC2)cc1 (centres undefined),-14,-0.7%,13%,2%
COc1ccc(CNC(=O)N2CCN(c3ccccc3)CC2)cc1,.,6.1%,-18%,1%
O=C(COC(=O)c1ccc(NS(=O)(=O)c2ccc(F)c(F)c2)cc1)NCC1CCCO1 (centres undefined),-6,-2.9%,17%,-1%
CCOc1ccc(S(=O)(=O)Nc2cccc(C(=O)NCC(c3ccc(OC)cc3)N3CCOCC3)c2)cc1 (centres undefined),.,-1.3%,1%,-2%
Cc1c(/C=N/NC(=O)c2cccnc2)cc(C#N)n1C,4,2.0%,6%,5%
Cc1ccc(NNC(=O)c2ccno2)c(C)c1,0,0.0%,-6%,1%
Cc1nc(NC(C)(C)CO)c([N+](=O)[O-])cc1[N+](=O)[O-],-5,-0.4%,1%,-5%
O=C(Nc1ccc(N=Nc2ccccc2)cc1)c1ccccc1Cl,-10,-5.3%,1%,-65%
O=C(COC(=O)c1cc(S(=O)(=O)N2CCc3ccccc3C2)ccc1Cl)NCc1ccco1,-19,-2.8%,-16%,2%
O=C(c1ccc(F)cc1)c1cn(Cc2ccc(F)cc2)c2cc3c(cc2c1=O)OCCO3,-3,?,-3%,0%

# More structures follow:
SMILES,GLA inh pH 4.5,Rango-impB inh,Rango release inh,miR-21 FLuc
O=C(CN(C(=O)c1csnn1)c1ccc(Br)cc1)NC1CCCCC1,.,1.1%,5%,-18%
c1ccc2c(c1)ccc1nnc(-c3ccc4c(c3)OCO4)n12,-4,-2.4%,19%,-23%
C/C(=N\NC(=O)CCCNc1ccccc1)c1ccncc1,4,6.8%,-18%,-3%
Cc1ccc(NC(=O)c2ccc(-n3cncn3)c([N+](=O)[O-])c2)cc1F,.,-3.4%,-6%,.
O=C(O)C1CCN(C(=O)CCN2C(=O)S/C(=C\c3ccccc3)C2=O)CC1,.,?,-5%,-8%
O=C(O)C(Cc1ccccc1)NC(=O)C(c1ccccc1)c1ccccc1 (centres undefined),.,0.4%,-4%,-2%
CCOC(=O)c1cnc(-c2ccccc2)[nH]c1=O,4,-0.1%,-3%,-8%
Cc1cccc2c1cnn2C(=O)Nc1cc(F)ccc1F,.,1.7%,-13%,-51%
COc1ccc(Cl)cc1N(CC(=O)NC(C)(C)C)S(=O)(=O)c1ccc(C)c([N+](=O)[O-])c1,-7,-2.8%,-17%,-8%
CC(=O)NC(c1cccs1)c1cc(F)c2cccnc2c1O (centres undefined),.,-2.8%,7%,.
COc1ccc(C(CC(=O)c2ccccc2)CC(=O)c2ccccc2)cc1OC,-4,-2.2%,-9%,-6%
COc1cc(C(=S)N2CCOCC2)ccc1OC(=O)c1ccccc1[N+](=O)[O-],.,4.7%,3%,10%
O=C(CCS(=O)(=O)c1ccc(Br)s1)NC1CCCCCC1,5,3.8%,8%,-5%
CC(C)OC(=O)c1c(NC(=O)Cn2cnc([N+](=O)[O-])n2)sc2c1CCCC2,6,0.4%,8%,-4%
Cc1ccc(CNC(=O)CC(C)S(=O)(=O)c2ccc3c(c2)NC(=O)C(C)S3)cc1 (centres undefined),.,-0.7%,-7%,29%

# Exported with values under each structure: entries from further up.
# Value order: GLA inh pH 4.5, Rango-impB inh, Rango release inh, miR-21 FLuc
c1ccc2c(c1)ccc1nnc(-c3ccc4c(c3)OCO4)n12
  -4, -2.4%, 19%, -23%
C/C(=N\NC(=O)CCCNc1ccccc1)c1ccncc1
  4, 6.8%, -18%, -3%
Cc1ccc(NC(=O)c2ccc(-n3cncn3)c([N+](=O)[O-])c2)cc1F
  ., -3.4%, -6%, .
O=C(O)C1CCN(C(=O)CCN2C(=O)S/C(=C\c3ccccc3)C2=O)CC1
  ., ?, -5%, -8%
O=C(O)C(Cc1ccccc1)NC(=O)C(c1ccccc1)c1ccccc1 (centres undefined)
  ., 0.4%, -4%, -2%
CCOC(=O)c1cnc(-c2ccccc2)[nH]c1=O
  4, -0.1%, -3%, -8%
Cc1cccc2c1cnn2C(=O)Nc1cc(F)ccc1F
  ., 1.7%, -13%, -51%
COc1ccc(Cl)cc1N(CC(=O)NC(C)(C)C)S(=O)(=O)c1ccc(C)c([N+](=O)[O-])c1
  -7, -2.8%, -17%, -8%
CC(=O)NC(c1cccs1)c1cc(F)c2cccnc2c1O (centres undefined)
  ., -2.8%, 7%, .
COc1ccc(C(CC(=O)c2ccccc2)CC(=O)c2ccccc2)cc1OC
  -4, -2.2%, -9%, -6%
COc1cc(C(=S)N2CCOCC2)ccc1OC(=O)c1ccccc1[N+](=O)[O-]
  ., 4.7%, 3%, 10%
O=C(CCS(=O)(=O)c1ccc(Br)s1)NC1CCCCCC1
  5, 3.8%, 8%, -5%
CC(C)OC(=O)c1c(NC(=O)Cn2cnc([N+](=O)[O-])n2)sc2c1CCCC2
  6, 0.4%, 8%, -4%
Cc1ccc(CNC(=O)CC(C)S(=O)(=O)c2ccc3c(c2)NC(=O)C(C)S3)cc1 (centres undefined)
  ., -0.7%, -7%, 29%

# (more compounds)
SMILES,GLA inh pH 4.5,Rango-impB inh,Rango release inh,miR-21 FLuc
COc1ccc(CCNC(=O)CSc2nc(=O)n3cccc(C)c3n2)cc1OC,.,-0.1%,-7%,.
COc1cc(OC)cc(C(=O)NC(=S)Nc2nc(-c3cc4ccccc4o3)cs2)c1,1,-0.3%,11%,-3%
COc1ccc(C(=O)COC(=O)CN2C(=O)C3C4C=CC(C5CC45)C3C2=O)cc1 (centres undefined),2,0.1%,-4%,-2%
O=C(O)C(C(=O)/C=C/c1ccco1)=C1SCCS1,-7,-4.3%,?,-31%
Cc1cc(C(=O)NC2CCN(Cc3ccccc3)CC2)n[nH]1,.,-0.1%,-1%,-3%
COc1ccccc1OCCCn1c(=O)sc2ccccc21,-13,2.2%,4%,-63%
O=C(NNS(=O)(=O)c1ccccc1)c1sccc1-n1cccc1,-8,-1.0%,-17%,-6%
C/C(CC(=O)NC1CCCCCC1)=N\NC(=O)c1cnccn1,-8,3.6%,-2%,-24%
CCNC(=S)NNC(=O)c1cccn(Cc2ccc(Cl)cc2)c1=O,2,-0.2%,6%,-6%
O=C(c1nc2ccccn2c1CNCCCn1nnc2ccccc21)N1CCOCC1,?,-1.2%,8%,-6%
